Screening results (PubChem BioAssay)
T cruzi inh = T. cruzi replication inhibition; 1.4% of 300,000 active; inhibition, % (no concentration beside the values); T. cruzi beta-gal in NIH3T3, luminescence, 90 h;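 active = mean inhibition across valid replicates above about 55%, limit read from the data; inconclusive = mean below that limit but half or more replicates reach it; inactive = mean below it, under half of replicates reach it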;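 note: signal also drops with host cell toxicity which is not excluded here; 0% = plate median of DMSO wells and 100% = zero luminescence signal; higher percent means less beta-gal luminescence so fewer parasites; stock transfer was 50 nL into about 50 µL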
RanGTP-Imp inh = inhibitors of RanGTP-importin-beta interaction, primary screen, biochemical, FRET, CFP-Ran, YFP-importin-beta, homogeneous; cell-free CFP-Ran/YFP-importin-beta FRET ratio; inhibition, % (concentration not given with the values); 1.1% of 300,000 active;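 active = most replicates above 15%; inconclusive = exactly half above 15%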;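 note: 0% = DMSO wells and 100% = Ran loaded with GDP instead of GTP; wells of about 40 µL received 100 nL stock; the first replicate is given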
Calb FLC = C. albicans growth modulation with fluconazole. 0.57% of 300,000 active. C. albicans CaCi-2 (fluconazole-resistant clinical isolate) + fluconazole, Alamar Blue growth, 48 h. AID 1979. growth inhibition, % (concentration not given with the values);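 active = most replicates above 75%; inconclusive = exactly half above 75%; inactive = most below 75%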;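 note: all wells also contain fluconazole at 8 µg/ml as a sub-toxic cotreatment; 0% = median of DMSO wells and 100% = median of geldanamycin control wells; wells of about 8 µL received 7.5 nL stock; the first replicate is given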
Beta cell apopt = blocks beta cell apoptosis. 0.8% of 300,000 active. protection from apoptosis, % (test concentration not listed). INS-1E cytokine-induced death, ATP luminescence, 48 h; percent of positive-control rescue, neutral wells zero;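 active = all replicates at 75% or more, or half of them and the mean; inconclusive = half reach 75% but not the mean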;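 note: 0% = cytokine-treated negative control wells and 100% = positive control rescue; higher means more ATP so stronger rescue from cytokine killing; wells of about 40 µL received 100 nL stock; the first replicate is given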
A1 inh = inhibitors of the anti-apoptotic protein A1, read as caspase activation; 0.066% of 330,000 active; caspase activation, % (concentration not given with the values); MEF A1-2A-BIM cells, Caspase-Glo 3/7 luminescence, 3 h; percent of clofoctol response, vehicle zero;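 active = over half of replicate activation scores above 10%, or exactly half above 10 with the replicate mean above 10; inconclusive = replicate mean below 10 yet half the replicates above 10; inactive = over half of replicates below 10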;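 note: wells of about 30 µL received 50 nL stock; many hits fall short of the cut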
rRNA inh HTS = inhibits bacterial ribosomal RNA function over humanized ribosomes; 1.6% of 350,000 active; GFP signal change (wild-type ribosome), % (concentration not given with the values); E. coli WT GFP vs humanized-ribosome RFP mutants, fluorescence, 24 h; active compounds read low; DMSO median 0, no signal -100; AID 720706;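 active = significant combined selectivity score with lowered wild-type GFP, culture density cut under 30%, mutant RFP and density less affected; inactive = any of these conditions unmet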; note: one replicate is shown; some compounds called inactive have numbers as strong as hits
Vif A3G = HIV-1 Vif–A3G interaction blockers – biochemical, TR-FRET, GST-Vif 1-94, biotin-A3G peptide, dose response retest, primary screen (AID 1117319) | TR-FRET GST-Vif / biotin-A3G peptide binding; higher % means a stronger effect; test concentration not given here; strong numbers were not always called active | inhibition, %, or IC50 in µM where a hit was titrated | 0.57% of 260,000 active;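 active = above the screen mean plus three standard deviations and confirmed in dose response; inconclusive = results disagree or hit not tested in dose response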;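 note: Vif residues 1-94 fused to GST binding biotinylated APOBEC3G peptide 110-148; 0% = full assay without inhibitor and 100% = GST in place of GST-Vif; retest series ran down from 100 µM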
AF4-AF9 inh = MLL-AF4/AF9 protein interaction inhibition. P42568. inhibition, % at 10 µM. AlphaScreen, biotin-AF4 peptide binding to FLAG-AF9. 0.47% of 350,000 active;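 active = every replicate reaching a set inhibition limit, whatever the replicate mean, cut at about 25% in these data; inconclusive = mean inhibition reaches that limit but some replicates miss it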;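 note: 0% = plate neutral control median and 100% = total signal loss; the record names both 10 and 1 µM as test concentration; the first replicate is given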
Target sequence (P42568 whole entry, looked up): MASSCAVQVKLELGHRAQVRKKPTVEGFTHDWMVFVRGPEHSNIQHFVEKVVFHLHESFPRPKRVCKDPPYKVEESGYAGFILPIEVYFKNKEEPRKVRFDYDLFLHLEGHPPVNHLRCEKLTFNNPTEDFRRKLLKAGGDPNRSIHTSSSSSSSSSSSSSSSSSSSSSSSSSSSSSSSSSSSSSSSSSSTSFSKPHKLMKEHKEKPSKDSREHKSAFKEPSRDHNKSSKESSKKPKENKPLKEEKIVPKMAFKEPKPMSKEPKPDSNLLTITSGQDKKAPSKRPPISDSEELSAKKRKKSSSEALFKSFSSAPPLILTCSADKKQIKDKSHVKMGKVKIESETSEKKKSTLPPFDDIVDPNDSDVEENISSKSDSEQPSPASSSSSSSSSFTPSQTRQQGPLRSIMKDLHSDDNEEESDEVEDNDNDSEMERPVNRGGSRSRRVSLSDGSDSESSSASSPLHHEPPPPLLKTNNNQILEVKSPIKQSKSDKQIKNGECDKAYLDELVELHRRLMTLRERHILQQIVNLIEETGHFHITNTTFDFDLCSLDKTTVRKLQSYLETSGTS
rRNA inh HTS OD600 = recorded beside rRNA inh HTS, whose call it bears; OD600 change, %; measured here: OD600 growth;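 optical density of the mix in the first replicate; 0 = DMSO median and -100 = no signal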
rRNA inh HTS RFP = second read-out of rRNA inh HTS, no call of its own (marks repeat the call); RFP signal change, %; measured here: RFP humanized mutant strains;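 first replicate; 0 = DMSO median and -100 = no signal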
* marks the source's active call; other numbers are inactive results; u = inconclusive; x = not tested or not shown; & = joins results of further samples.

Order of results – AF4-AF9 inh, rRNA inh HTS RFP, T cruzi inh, rRNA inh HTS OD600, Beta cell apopt, A1 inh, RanGTP-Imp inh, rRNA inh HTS, Vif A3G, Calb FLC
1	COc1ccccc1N(C(=O)c1snc(C(N)=O)c1N)C(C(=O)NC1CCCC1)c1ccc2ncccc2c1 (stereo not given)
→ 0.7, -13, -1, 6, -4, -0.4, u, 9, x, 9
2	Cc1sc2ncnc(N[C@@H](Cc3c[nH]c4ccccc34)C(=O)O)c2c1C
→ x, x, 3, x, -7, 0.0, -3.4, x, -3%, -6
3	COC(=O)c1ccc(N=Nc2ccccc2)cc1
→ 1.3, -2.4, -18, -17, 1, -5.5, -1.3, -14, 4%, -20
4	CC(=O)N1CCN(c2nc(-c3ccco3)c3c(c2C#N)CC(C)(C)SC3)CC1
→ x, x, x, x, 2, 2.0, 16*, x, 25µM*, 1
5	CCOC(=O)N1CCN(C(=O)Cc2ccccc2[N+](=O)[O-])CC1
→ 1.6, -1.4, 3, 4, -3, 0.8, -3.6, 6, x, -19
6	CC(O)C(=O)N/N=C/c1cccc2ccccc12 (stereo not given)
→ -5.4, 0.4, -13, -3, x, x, -1.7, -2, x, 0
7	COc1ccccc1-c1nc(=S)c(C(C)=O)c(C)[nH]1
→ -3.9, 3.3, -19, 13, -5, 0.3, 1.6, 13, -9%, 12
8	Nc1nonc1-n1nnc(C(=O)N/N=C/c2ccccc2Cl)c1CN1CCOCC1
→ -0.4, -4.1, -7, 6, 0, 0.8, -2.2, 7, x, -13
9	COc1cccc(C2C(C(=O)c3cc4ccccc4o3)=C(O)C(=O)N2c2cc(C)on2)c1OC (stereo not given)
→ x, x, -3, x, 4, -0.1, -1.9, x, -18%, 78*
10	OCC1(Cc2ccccc2C(F)(F)F)CCN(Cc2ccccc2)CC1
→ 2.8, 0.0, 14, -12, -7, 1.0, 6.4, -7, 7%, -6
11	CC(=O)Nc1ccc(S(=O)(=O)NCCNc2ccccc2[N+](=O)[O-])cc1
→ 1.4, -2.0, -2, -3, 4, 0.8, 3.5, 0, x, -7
12	COc1cc2cc(C)nc(Cc3cccc4ccccc34)c2cc1OC
→ 3.2&-2.5, -0.2, 21, -22, 3, 0.4, 0.2, -14, -4%, 15
13	O=S(=O)(Nc1ccc(F)cc1)N1CCCCCC1
→ x, x, -9, x, -5, 0.0, 3.5, x, -1%, 2
14	NS(=O)(=O)c1ccc(N/N=C/c2cn(-c3ccccc3)nc2-c2cccs2)cc1
→ x, x, 6, x, 2, 0.2, -1.8, x, -4%, 21
15	COc1ccccc1NC(=O)CCN1C(=O)C2CC=C(Cl)CC2C1=O (stereo not given)
→ 2.2, 1.7, 4, -1, 2, 0.7, 2.3, -3, 2%, -4
16	O=C1CN(S(=O)(=O)c2cc(Cl)ccc2Cl)c2ccccc2N1
→ -0.6, 6.1, 0, -5, 0, -0.1, -3.3, -7, x, 2
17	Cc1ccc(NC(=S)NCCN(C2CCCCC2)C2CCCC2)cc1C
→ 7.4, 12, 28, -22, 17, 0.6, 3.7, -15, x, -25
18	CCOc1ccc2c(=O)c(Oc3ccccc3OCC)coc2c1
→ x, x, 4, x, -3, -0.8, 7.2, x, 0%, -2
19	CC1CCCC(NC(=O)COC(=O)CSc2ccc3ccccc3c2)C1C (stereo not given)
→ -8.1, -2.8, 0, -1, -11, -0.3, 1.0, -2, -5%, 0
20	Cc1noc(C)c1COc1ccc(C(=O)NCc2cccs2)cc1
→ -11, 10, x, -1, 17, 1.7, x, 3, -3%, x
21	O=C(O)c1ccc(N=C2SCC(=O)N2Cc2ccccc2)cc1
→ -1.1, -2.3, -22, -8, -5, -0.3, -4.3, -8, -4%, -10
22	COC(=O)CC1=C(C)C(=O)CC2C(C)(C)CCCC12C (stereo not given)
→ -0.6, -1.5, 0, 4, x, 0.2, -1.3, -6, -1%, -4
23	CCOc1ccc(OCC)c(NC(=O)CN(C)S(=O)(=O)c2cccc3nsnc23)c1
→ x, x, 0, x, -3, -0.2, -0.9, x, 23%, u
24	O=C(O)CC1=C(O)C(=O)N(c2ccccc2)C1c1ccccc1 (stereo not given)
→ x, x, -15, x, -6, -0.3, u, x, u, -5
25	CCOC(=O)c1c(C)n(-c2ccc(F)cc2)c2ccc(O)cc12
→ x, -2.4, 9, -2, x, 0.7, 1.5, -3, -2%, 4
26	O=C1C2CC=CCC2C(=O)N1CNc1ccccc1 (stereo not given)
→ x, x, 8, x, -5, 0.7, -3.4, x, 26%, 3
27	CN(Cc1nc(-c2cccs2)no1)CC1(N2CCOCC2)CCCCC1
→ 0.1, -4.5, 4, -16, -6, -0.1, -0.7, 30, -3%, -2
28	CCN(CC)CCN1C(=O)C(=O)/C(=C(/O)c2ccc(OC)cc2)C1c1ccco1 (stereo not given)
→ x, x, -6, x, -19, 0.7, 0.8, x, 1%, -4
29	O=C(CCc1nc2ccccc2c(=O)[nH]1)OCc1ccc(-c2ccccc2)cc1
→ 3.3, 22, 18, 8, -5, 1.0, u, -17, -14%, -23
30	NC1=NC(=O)/C(=C/c2ccc(Cl)cc2Cl)S1
→ 2.1, 3.6, -6, 12, -7, -0.4, -6.6, 2, 4%, 4
31	O=C(COc1cccc(Cl)c1)Nc1ccc2c(c1)CCC2
→ -27, 3.4, 5, 7, -13, 0.4, -2.0, -6, 15%, -1
32	COC(=O)c1ccccc1NC(NC(=O)c1ccco1)C(=O)c1ccccc1 (stereo not given)
→ x, x, -7, x, -6, -0.2, -5.6, x, -3%, -6
33	CC(C)Cc1nnc(NC(=O)c2cccc(S(=O)(=O)N3CCOCC3)c2)s1
→ -1.3, -0.9, x, -10, -7, 0.9, x, -1, 2%, x
34	CN1CCN(NC(=O)c2ccc(Cl)s2)CC1
→ -1.9, -0.2, 22, 0, x, -1.5, 0.8, -4, -12%, 23
35	Cc1ccc(-n2c(SCC(=O)Nc3ccc(C(=O)O)cc3)nnc2-c2ccncc2)cc1
→ -5.0, 2.5, -8, 4, 3, -0.2, -4.3, 4, -10%, -10
36	COc1ccccc1CNc1ncccn1
→ -0.5, -2.3, -5, 7, -5, 0.2, 2.4, 5, 0%, -6
37	COc1ccc(C2(NC(C)=O)CCN(C(=O)CCC(=O)O)CC2)cc1
→ x, x, -4, x, 7, 0.9, -0.7, x, -1%, -5
38	COc1ccc(N(C(C)=O)S(=O)(=O)c2cc(OC)ccc2OC)cc1
→ x, x, -15, x, -6, -0.2, 6.4, x, -2%, -5
39	O=C(Nc1ccc2c(c1)OCO2)c1ccc(Br)s1
→ x, x, -22, x, 13, -6.2, 2.1, x, 0%, -28
40	CC(=O)N1CCCc2cc(S(=O)(=O)Nc3ccccc3C)ccc21
→ -1.5, 0.8, 6, 4, -2, -0.8, 1.7, 0, x, -27
41	CCc1noc(C)c1C(=O)OCC(=O)NC(C)c1ccccc1 (stereo not given)
→ -0.4, -2.5, x, 4, -1, -0.1, x, 3, 0%, x
42	Cn1c(=O)c2c(nc(Sc3ncccn3)n2Cc2ccc(Cl)cc2)n(C)c1=O
→ -7.7, -1.7, 5, -9, 0, 0.5, -3.8, -3, 14%, -4
43	Cc1nn(Cc2cccc(C(=O)NC34CC5CC(CC(C5)C3)C4)c2)c(C)c1Br
→ x, x, 25, x, 6, 0.0, 2.8, x, -5%, 0
44	Cc1cccc(NC2=NC(=S)N(c3cccc(C(=O)O)c3)C23CCCCC3)c1
→ -0.5, -2.7, -10, -1, -8, 0.3, u, -5, 10%, 104*
45	Cc1ccc(NC2=C(N3CCOCC3)C(=O)c3ccccc3C2=O)cc1
→ x, x, -22, x, 66, -1.3, -2.6, x, 27%, 39
46	O=C(CO/N=C\c1ccccc1)Nc1ccccc1C(=O)N1CCOCC1
→ x, x, -3, x, -2, 0.0, -0.8, x, -2%, -13
47	COc1ccc(NC(=S)N2CCN(C(c3ccccc3)c3ccccc3)CC2)cc1OC
→ 7.1, x, 6, x, -13, 0.0, 1.3, x, x, 14
48	CC[n+]1c(/C=C/C=C/N(C(C)=O)c2ccccc2)sc2cc(OC)ccc21
→ -65, 37, x, 15, 49, 0.3, x, 29, u, x
49	Cc1ccc(-n2c(C)cc(C(=O)NS(=O)(=O)c3ccc(C)cc3)c2C)cc1
→ x, x, -10, x, -2, 0.1, -3.5, x, x, -3
50	CC(C)CN1CCNC(=O)C1CC(=O)NCCc1cnn(-c2ccccc2)c1 (stereo not given)
→ 4.0, 1.0, -15, -2, -10, 0.0, 2.9, -1, 14%, 9

(cont.)
Order of results – AF4-AF9 inh, rRNA inh HTS RFP, T cruzi inh, rRNA inh HTS OD600, Beta cell apopt, A1 inh, RanGTP-Imp inh, rRNA inh HTS, Vif A3G, Calb FLC
51	Cc1cc(Nc2nc3ccccc3nc2Cl)n(-c2ccccc2)n1
→ x, x, 10, x, -14, 0.5, -6.3, x, 1%, 2
52	COc1ccc(-c2[nH]n(-c3ccc([N+](=O)[O-])cc3)c(=O)c2C=NCc2ccc(F)cc2)cc1
→ -2.1, x, -6, x, 1, -0.6, -7.9, x, x, -7
53	c1csc(-c2nnc(N3CCOCC3)c3ccccc23)c1
→ 3.7, -5.0, -2, -23, -13, 0.9, -0.1, -23, 9%, 37
54	COc1ccc(OCC(=O)Nc2nc3c(s2)CCCC3)cc1
→ -4.1, -13, -1, -68, x, x, -1.5, -47, x, -6
55	O=C(c1cccc(C(F)(F)F)c1)C1CCCN(C(=O)CCn2cnnn2)C1 (stereo not given)
→ -15, 0.5, -6, 0, -1, 0.9, 1.0, -6, -5%, 0
56	COC(=O)C1=C(C)N(CCCC(=O)O)C(=O)NC1c1cccc2ccccc12 (stereo not given)
→ 0.0, -4.5, -19, -1, 5, 0.7, -2.0, -6, x, 2
57	COc1ccc(C(=O)NNC(=O)c2ccccc2[N+](=O)[O-])cc1
→ x, x, 5, x, -2, -0.4, 4.0, x, x, 19
58	CCOC(=O)COc1ccccc1-c1ccno1
→ x, x, -10, x, -2, 0.4, 1.2, x, 0%, u
59	O=[N+]([O-])c1cc(-c2nnc(Nc3ccc(O)cc3)c3ccccc23)ccc1N1CCOCC1
→ 0.7, 4.5, 31, -1, 13, 0.4, 4.3, 2, 23%, 21
60	CCn1c(NCc2cc(Br)ccc2NS(=O)(=O)c2ccc(C)cc2)nc2ccccc21
→ x, x, 64*, x, 10, -0.2, -3.8, x, 12%, 0

This is a subset; rates above refer to the full screens.
